Screening data deposited in PubChem by The Scripps Research Institute Molecular Screening Center.
OX1R antag-1: blocks the human orexin 1 receptor; O43613; CHO/OX1R cells, Fluo-8 calcium fluorescence, orexin A; inhibition, % at 5 µM; 0.43% of 330,000 active; AID 434989;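 active = inhibition above its plate's threshold, mean inhibition of all tested compounds on the plate plus 3 SD, cut at about 37% in these data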;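 also: 0% = orexin A challenge wells and 100% = SB-334867-A antagonist wells; not every result past the cut was called active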
Target sequence (O43613 whole entry, looked up): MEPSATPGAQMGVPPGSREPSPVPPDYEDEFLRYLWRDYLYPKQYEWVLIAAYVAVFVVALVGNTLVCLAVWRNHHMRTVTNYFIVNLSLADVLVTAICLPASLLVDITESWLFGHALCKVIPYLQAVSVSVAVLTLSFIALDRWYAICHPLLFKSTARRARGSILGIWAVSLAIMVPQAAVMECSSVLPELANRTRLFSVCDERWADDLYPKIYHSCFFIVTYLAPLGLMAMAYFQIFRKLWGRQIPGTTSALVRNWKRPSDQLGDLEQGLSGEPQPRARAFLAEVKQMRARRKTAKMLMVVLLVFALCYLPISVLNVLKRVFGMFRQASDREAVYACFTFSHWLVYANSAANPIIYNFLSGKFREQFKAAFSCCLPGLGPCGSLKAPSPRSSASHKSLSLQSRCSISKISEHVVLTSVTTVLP
OX1R antag-2: blocks the human orexin 1 receptor; inhibition, % at 6.6 µM; AID 485270; O43613; 1.8% of 330,000 active; OX1R-expressing cells, FRET antagonist read-out; in the data active = inhibition mostly above about 38%, no sharp cut-off; inactive = mostly below about 40%;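 also: 0% = agonist challenge alone and 100% = reference antagonist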
An asterisk follows results filed as active. These rows are one share of the data; most or all hits stand in other tables.

Every second line gives: OX1R antag-2 | OX1R antag-1
FC(F)(F)c1ccc(N2CCN(c3ncnc4c3nnn4Cc3ccccc3)CC2)nc1
 : 0.9 | -2.4
C=C1[C@@H](OC(C)=O)CC[C@]2(C)[C@@H]1C[C@@H]1C[C@H](OC(C)=O)C(C)=C([C@@H](OC(C)=O)[C@@H]2OC(C)=O)C1(C)C
 : 17.2 | -31.0
O=C(NCC1CCCO1)C(=O)N/N=C/c1ccccc1C(=O)O (stereo not drawn)
 : 18.2 | -14.5
CCOC(=O)c1c(C)[nH]c(C(=O)N2CCc3cc(OC)c(OC)cc3C2)c1C
 : 11.9 | -26.6
COc1ccc(-c2cc(-c3ccc(Cl)cc3)c(C#N)c(SCC(=O)O)n2)cc1
 : 27.6 | 1.9
CC(C)CCOc1ccc(C2(C)NC(=O)N(CN3CCOCC3)C2=O)cc1 (stereo not drawn)
 : 20.8 | -11.5
CCOc1ccc(Nc2nc(N)nc(CN3CCN(c4ccccc4F)CC3)n2)cc1
 : 11.2 | -40.7
CC(C)N(C(=O)[C@H]1CC(CC(=O)NCCC2=CCCCC2)C(=O)N2CCc3c([nH]c4ccccc34)[C@]12C)C(C)C (stereo partly drawn)
 : 3.7 | 7.8
CC(=O)Nc1ccc(NC(=O)CCCNC(=O)c2ccc(Cl)cc2)cc1
 : 14.1 | -29.7
CCCN(CC1CC1)C(=S)Nc1ccccc1F
 : 7.1 | -9.1
Cc1ccc(C(=O)NCC2CCCO2)cc1N1CCCC1=O (stereo not drawn)
 : 7.0 | -12.1
Cc1ccc(O)c(N)c1
 : 2.8 | -5.1
CCOc1ccc(N2C(=O)CC(NC3CCCCNC3=O)C2=O)cc1 (stereo not drawn)
 : 12.9 | -17.2
CC(=O)Nc1ccc2nc(SCC(=O)O)sc2c1
 : 18.2 | -16.3
COc1cccc(C(c2sc3nc(C)nn3c2O)N2CCN(c3ccccc3F)CC2)c1 (stereo not drawn)
 : 12.7 | 1.1
Cc1nc2c(=O)oc3ccccc3c2n1-c1ccccc1
 : 17.2 | -20.2
COc1ccc(-n2c(=O)c3ccccc3n(CC(=O)NCc3ccco3)c2=O)cc1
 : 8.9 | -9.3
Cc1cccc(NC(=O)C(=O)NCC2CCCO2)c1 (stereo not drawn)
 : 12.1 | 9.2
O=C(CSc1ccc(Cl)cc1)Nc1cccc(NC(=O)c2ccco2)c1
 : 18.9 | -11.0
CCOc1ccccc1NC(=S)NCCCn1ccnc1
 : 1.5 | -12.4
O=C(NC1CCCC1)C(c1ccncc1)N(C(=O)c1csnn1)c1ccc(F)cc1 (stereo not drawn)
 : 10.0 | -10.5
Cc1ccn(CCSCC(=O)O)n1
 : 11.7 | -14.8
CN(C)CCCN1c2ccccc2CCc2ccc(Cl)cc21
 : 8.3 | -26.5
COC(=O)c1ccc(-c2ncc[nH]2)cc1
 : -2.3 | -14.6
CC(=O)c1cccc(NC(=O)CN2C(=O)c3ccccc3C2=O)c1
 : 6.8 | -3.6
CCSc1nnc(N(CCC#N)CCC#N)s1
 : 9.9 | -14.5
O=C(CC12CC3CC(CC(C3)C1)C2)Nc1c(F)cccc1F
 : -5.6 | -22.3
CCn1c(C)c(C)c2cc(C(=O)NC3CCCCCC3)ccc21
 : 1.7 | -28.6
O=C(CN1CCOCC1)N/N=C/c1ccc(-c2ccc(C(=O)O)cc2)o1
 : 15.1 | -5.7
CC(NC(=O)C(=O)NCCN1CCN(C(=O)c2ccccc2Br)CC1)c1ccccc1 (stereo not drawn)
 : 5.3 | -13.1
O=C(Nc1nccs1)c1ccc(NC(=O)C2CC=CCC2C(=O)O)cc1 (stereo not drawn)
 : 18.2 | -4.0
COc1ccccc1NC(=O)C(C)OC(=O)CCCc1c[nH]c2ccccc12 (stereo not drawn)
 : 19.1 | -17.5
COc1ccc2ccccc2c1CNCCN1CCOCC1
 : 19.9 | -25.2
COC(=O)c1cn(NC(=O)CC2CCCCC2)c(=O)c2ccccc12
 : 24.6 | -42.3
COc1ccc(Cn2c(C3CC3)nc3ccc(NC(C)=O)cc3c2=O)cc1
 : 26.9 | -24.1
COc1cc(NC(=O)C2=C(C)OCCS2)c(Cl)cc1C(=O)NCCN(C)C
 : -5.3 | -23.1
Nc1c(C(=O)NC2CCCCC2)nsc1C(=O)OCC(=O)NC1CCCCC1
 : 8.4 | -10.3
COc1ccc(S(=O)(=O)NCCNC(=O)N2CCOCC2)cc1
 : 4.3 | 2.5
CC(C)CCNC(=O)C1CCCCN1S(=O)(=O)c1ccc(F)cc1 (stereo not drawn)
 : 1.5 | -14.4
COCc1c(Br)c(C)nc(OCC(=O)N/N=C/c2ccc(C)o2)c1C#N
 : 22.9 | -17.7
Cc1cc(NC(=O)COC(=O)c2cnccn2)ccc1Br
 : 5.7 | -4.7
COc1cccc(NC(=O)CCC2CCN(C(=O)c3cccc(NC(C)=O)c3)CC2)c1
 : 10.2 | -5.8
COCCn1nnnc1CN1CCOCC1
 : 12.9 | 10.5
Cc1ccc(SCC(=O)OCC(=O)NCc2ccco2)cc1
 : -0.7 | -21.1
CCOC(=O)C1CCCN(C(=O)c2cc(Nc3ccc(OC)c(OC)c3)nc3ccccc23)C1 (stereo not drawn)
 : 6.0 | -32.2
COc1cc([C@@H]2c3cc4c(cc3[C@@H](O)[C@@H](CO)[C@@H]2CO)OCO4)cc(OC)c1O[Si](C)(C)C(C)(C)C
 : 23.4 | 6.4
CC(c1ccccc1)C1CC(=O)N(c2ccc([N+](=O)[O-])cc2)C1=O (stereo not drawn)
 : 6.8 | -10.4
CCc1cnccc1CCC(=O)Nc1ccccc1C
 : 5.5 | -24.4
COc1nnc(-c2ccc(N3CCOCC3)c(NC(=O)c3ccco3)c2)c2ccccc12
 : 34.3 | -14.9
Cc1cc(C)cc(C(=O)N2CC(C)SC2=Nc2cccc(S(=O)(=O)N(C)C)c2)c1 (stereo not drawn)
 : 8.0 | -21.2

The list goes on.
Every second line gives: OX1R antag-2 | OX1R antag-1
CCOC(=O)N1CCC(NC(=O)CSCc2nc(-c3ccc(OC)cc3)oc2C)CC1
 : 15.0 | -33.3
COc1ccc(/C=N/NC(=O)CCn2cnc(-c3ccccc3)c2-c2ccccc2)cc1
 : 16.0 | -28.5
O=C(Nc1ccc(S(=O)(=O)N2CCOCC2)cc1)c1cc([N+](=O)[O-])ccc1Cl
 : 19.1 | -6.2
Cc1cccc(OCc2nnc(SCC(=O)N3c4ccccc4Sc4ccc(Cl)cc43)o2)c1
 : 4.1 | -21.3
CC1Cc2ccccc2N1C(=O)c1ccc2snnc2c1 (stereo not drawn)
 : 8.5 | -22.8
Cc1ccc(S(=O)(=O)Cc2ccc(C(=O)N3CCN(c4ccccn4)CC3)o2)cc1
 : 6.1 | -33.3
O=C(CSc1ccc(Cl)cc1)NCc1ccco1
 : 7.7 | -20.2
COc1ccc(S(=O)(=O)Nc2c(C(=O)O)[nH]c3ccccc23)cc1OC
 : 14.8 | 5.9
COCCCC1CCN(C(=O)C2CCC(=O)N(C3CCCC3)C2)CC1 (stereo not drawn)
 : 9.9 | 8.8
CSCCC(NC(=O)c1ccco1)C(=O)Nc1ccc(C)c(S(=O)(=O)N2CCOCC2)c1 (stereo not drawn)
 : 10.5 | -13.9
CCCC(=O)Nc1sc2c(c1C#N)CC(C)(C)NC2(C)C
 : 8.5 | -3.9
CC(C)(C)OC(=O)N1CCC[C@H]1c1nnc(SC/C=C/c2ccccc2)o1
 : -1.7 | -14.5
Cc1oc(-c2cccc(Cl)c2)nc1CSc1nc2c(c(=O)[nH]1)CCC2
 : 9.6 | -25.5
C=CCNC(=O)/C(=C/c1cccc([N+](=O)[O-])c1)NC(=O)c1ccccc1
 : 47.5 | -11.6
C/C(N)=C(/C#N)C(=O)CSc1nnc(NC(C)C)s1
 : 9.7 | -8.2
COc1ccccc1/C=C(/C(=O)OCC(=O)Nc1ccc(N(C)C)cc1)c1ccccc1
 : 23.6 | -30.0
Cc1ccc(-n2c(N)c(C(N)=O)sc2=S)cc1
 : 28.3 | -14.7
Fc1ccc2[nH]c3c(c2c1)CN(C(=S)NCc1ccccc1)CC3
 : 11.1 | 0.7
Cc1ccc(NC(=O)c2cc(NC(=O)C3CC=CCC3C(=O)O)ccc2N2CCOCC2)cc1 (stereo not drawn)
 : 13.8 | -16.1
Cc1ccc(C)c(N(CC(=O)N/N=C/c2ccc(-c3ccc([N+](=O)[O-])cc3)o2)S(=O)(=O)c2ccccc2)c1
 : 9.3 | -11.6
CCOc1ccc(C(O)Cc2nc3ccccc3n2C)cc1 (stereo not drawn)
 : 20.9 | -3.7
Cc1ccc(C(=O)Nc2cccc(C(F)(F)F)c2)cc1NC(=O)c1nccn1C
 : 28.9 | -11.8
Cc1nn(-c2ccccc2)nc1CNC(=O)C1CCC1
 : 19.6 | -10.8
O=C(CSc1nnc2c3ccccc3c3ccccc3c2n1)Nc1ccccc1F
 : 30.2 | -10.5
CCCN(Cc1ccccc1)C(=S)Nc1ccc(OCC)cc1
 : 9.2 | -17.7
O=C(CN1CCCCCC1)Nc1ccc(S(=O)(=O)N2CCCCC2)cc1
 : 16.0 | -11.9
CCOc1ccccc1Nc1ccc(C(=O)O)cc1NC(C)=O
 : 18.6 | 2.9
O=c1[nH]c2cc3c(cc2cc1CN(Cc1cccnc1)C(=S)NCc1ccco1)OCO3
 : 25.7 | -9.5
O=C(NN1C(=O)C2C3CCC(O3)C2C1=O)c1ccc(Br)o1 (stereo not drawn)
 : 21.2 | -1.5
COc1ccccc1NC(=O)CNc1ccc(F)c(Cl)c1
 : 6.5 | -17.6
Cc1noc(C)c1C(=O)OCC(=O)N(C)C1CCS(=O)(=O)C1 (stereo not drawn)
 : 1.7 | -7.9
CCOc1ccc(C(=O)OCC(=O)NC(C)C)cc1
 : 4.8 | -16.2
CN(C)CCOC1c2ccccc2C=Cc2ccccc21
 : 5.5 | -16.1
ClCc1cc2ccccc2nc1Cl
 : 6.7 | -25.4
COC(=O)c1sc(N2CCCCC2)c(C#N)c1N
 : 9.8 | -10.3
CCCNc1c(NS(=O)(=O)c2cccc(C#N)c2)c(=O)oc2ccccc12
 : 28.6 | -18.3
CC(NC(=O)C(Cc1ccccc1)NC(=O)c1ccccc1)C(=O)O (stereo not drawn)
 : 3.7 | -6.8
CC(C)(C)/C(COc1ccccc1[N+](=O)[O-])=N/O
 : 14.9 | -9.6
O=C(COC(=O)C1Cc2ccccc2CN1C(=O)c1ccccc1)Nc1ccc(SC(F)F)cc1 (stereo not drawn)
 : 0.9 | -11.3
O=C(CS(=O)(=O)c1ccccc1)Nc1ccc(N2CCOCC2)cc1
 : 4.5 | 11.1

Sorted by value in OX1R antag-2 (highest first): 3 from the list above.
canonical_smiles,OX1R antag-2
O=C(NCC1CCCO1)C(=O)N/N=C/c1ccccc1C(=O)O (stereo not drawn),18.2
Cc1nc2c(=O)oc3ccccc3c2n1-c1ccccc1,17.2
Cc1cc(NC(=O)COC(=O)c2cnccn2)ccc1Br,5.7

(listing goes on)
Every second line gives: OX1R antag-2 | OX1R antag-1
CN(C)c1ccccc1C(=O)c1ccccc1N(C)C
 : 22.8 | -15.8
Cc1ccccc1S(=O)(=O)Cc1ccc(C(=O)N2CCN(c3ccc(F)cc3)CC2)o1
 : -0.1 | -18.5
CC1=C(C(=O)OCc2ccccc2)C(c2ccccc2OS(=O)(=O)c2ccccc2[N+](=O)[O-])NC(=O)N1CCCC(=O)O (stereo not drawn)
 : 24.9 | 1.3
O=C(Cc1cccs1)Nc1ccc(Cl)cc1
 : 5.3 | -15.7
Cc1ccnc(N2C3CCC2CC(O)(c2ccccc2)C3)n1 (stereo not drawn)
 : 3.9 | -24.2
Cc1ccccc1OCC(=O)N/N=C/c1cccn1C
 : 8.4 | 5.1
CCOC(=O)c1cc(C#N)c(N2CCOCC2)nc1-c1ccccc1
 : 25.3 | -7.6
O=C(c1cc2ccccc2o1)N1CCN(S(=O)(=O)c2ccc(F)c(F)c2F)CC1
 : 1.6 | 1.1
CC(C)(C)NC(=O)CN(C(=O)Cn1nnc(-c2ccc(Cl)cc2)n1)C1CCN(Cc2ccccc2)CC1
 : 7.1 | -29.8
CC1=NN(C(C#N)c2ccc(F)cc2)C(c2ccccc2)C1 (stereo not drawn)
 : 7.8 | -0.8
Cn1c(SCC(=O)NC2CCCC2)nnc1-c1ccco1
 : 4.9 | -7.2
O=C(c1cccn(Cc2cccc(Cl)c2)c1=O)N1CCOCC1
 : 12.2 | -6.2
CCCCNS(=O)(=O)c1ccc(OC)c(C)c1
 : 13.3 | -16.7
Cc1cccc(OCC(=O)Nc2cc(S(=O)(=O)N3CCCCC3)ccc2N2CCN(C)CC2)c1
 : 3.1 | -29.4
O=c1oc2c(CN3CCOCC3)c(O)ccc2c2ccccc12
 : 6.9 | -18.9
Cc1cc(C)n2cc(CSc3ncn[nH]3)nc2n1
 : 13.9 | -3.5
CC(C)(C)NC(=O)c1cccc(NC(=O)CSc2ccc(Cl)cc2)c1
 : 25.7 | -24.3
CCN(CC)CCN(C(=O)c1ccc(Br)s1)c1nc2cc3c(cc2s1)OCO3
 : 6.3 | 9.9
Cc1ccc(NC(=O)C2(c3ccccc3)CCCC2)nc1
 : 20.9 | -16.3
O=C(COc1ccccc1)NCc1ccc2c(c1)OCO2
 : 3.3 | -9.9

Reformatted as labelled records: two of the compounds above.
> ClCc1cc2ccccc2nc1Cl
  OX1R antag-2: 6.7	OX1R antag-1: -25.4

> COC(=O)c1sc(N2CCCCC2)c(C#N)c1N
  OX1R antag-2: 9.8	OX1R antag-1: -10.3

Later entries:
Every second line gives: OX1R antag-2 | OX1R antag-1
COc1cc(OC)c(C(=O)NC23CC4CC(CC(C4)C2)C3)cc1OC
 : 16.9 | -40.7
COc1ccc(NS(=O)(=O)c2cc3c(cc2C)N(C(C)=O)CCO3)c(OC)c1
 : 1.5 | -17.3
Cc1ccc(N(C(=O)CS(=O)CC(=O)Nc2ccc(F)cc2)C(C)C(=O)NC(C)(C)C)cc1 (stereo not drawn)
 : 17.3 | -18.0
Cc1ccc(C)c(NC(=S)NCCc2ccc(S(N)(=O)=O)cc2)c1
 : 0.9 | -8.8
CC1(c2nnc(-c3ccccc3)o2)CC(c2ccc(F)cc2)=NO1 (stereo not drawn)
 : 14.0 | -5.8
